Vaccinia mCherry: inhibitors of vaccinia virus infection (mCherry reporter signal); Vaccinia virus mCherry reporter infection, fluorescence; about a quarter of the inactives have no number; Potency, µM (series often up to 36.5 µM), for inactives: at the top dose activity change, negative = inhibition, most hits filed as inhibitors; AID 720579; hit rate 0.63% among 310,000; active = well fitted inhibition curve with a large enough effect; inconclusive = small, poorly fitted or top-dose-only effect; inactive = no such curve, though single readings can be large or run the other way; tested in A549 cells; further: nearly all actives have a fitted effect of over 35% in size; inactives centre near -10
Vaccinia Venus: inhibitors of vaccinia virus (Venus reporter); Vaccinia virus Venus reporter expression, fluorescence; Potency, µM (titrated, usually from 36.5 µM), inactives show at the highest dose activity change, negative = inhibition, most hits filed as inhibitors; hit rate 0.46% among 330,000; active means well fitted inhibition curve with a large enough effect; inconclusive means small, poorly fitted or top-dose-only effect; inactive means no such curve, though single readings can be large or run the other way; tested in A549 cells; further: nearly all actives have a fitted effect of over 30% in size; inactives centre near -10
* = called active by the depositor; i = inactive; ? = inconclusive; . = no result given; & = joins results of further samples; [ ] = remark or other dose. On the % scale 0 is the no-effect control and ±100 the full control effect; potency means the concentration at half of the fitted maximal effect. Compounds as they come; about 0.87% have a hit in one of these screens.

Compound	Vaccinia mCherry	Vaccinia Venus
COc1ccccc1N1CCN(S(=O)(=O)c2c(C)sc3ncn(CC(=O)Nc4ccc(C(C)C)cc4)c(=O)c23)CC1	-6%	-11%
CCOC(=O)c1cc(-c2ccccc2)n(CCC(=O)Nc2ccccc2CC)c1C	-10%	-12%
O=C(NCCOc1ccc(Cl)cc1)c1ccc2ccccc2n1	-11%	-11%
Cc1ccc(-c2nc(CS(=O)CC(=O)NCc3ccccc3)c(C)o2)cc1 (stereo unspecified)	?	-22%
CCOC(=O)[C@@H]1[C@H]2COc3ccccc3[C@H]2N2C(=O)N(c3ccc(OC)cc3)C(=O)[C@]12C	i	2%
Cc1cc(C(=O)OCC(=O)Nc2ccccc2F)c(C)n1C1CC1	-6%	-15%
Nn1c(SCC(=O)Nc2ccccc2Br)nnc1-c1ccco1	i	-7%
CCCNc1c(NS(=O)(=O)c2cccc(C#N)c2)c(=O)oc2ccccc12	-1%[7.34 µM]	15%[7.34 µM]
O=S(=O)(c1nccs1)N1CCN(c2nc(-c3cccs3)nc3ccccc23)CC1	i	-6%
O=C(NCc1nnnn1-c1cccc(F)c1)c1ccc(S(=O)(=O)N2CCOCC2)cc1	-15%	-14%
N#Cc1sc2nc(C3CC3)cc(-c3ccccc3)c2c1N	-2%	-2%
COc1ccccc1C(=O)Nc1nnc(S(=O)(=O)N2CCC(C)CC2)s1	i	-16%
COC(=O)c1cc2oc(C)cc2n1CC(=O)Nc1ccc(C(C)C)cc1	-13%	-3%
CC12CC3CC(C)(C1)CC(C(=O)NCc1ccco1)(C3)C2	-14%	-9%
CC1CCN(C(=O)CCNC(=O)c2ccccc2)CC1	i	-13%
COc1ccc(NC(=O)C2(C)CCN2C(=O)CC2CCCC2)cc1OC (stereo unspecified)	3%	-1%
Cc1cc(C)c(C(O)c2ncc(-c3cccc4ccccc34)[nH]2)c(C)c1 (stereo unspecified)	-6%	-8%
CC(=O)n1cc([C@@H]2C=C(C(=O)N3CCN(Cc4ccccc4)CC3)O[C@H](OCc3ccc(CO)cc3)C2)c2ccccc21	-22%	?
CCCn1cc(SCC(N)=O)c2ccccc21	i	0%
CCCCN(CC)CCCNC(=O)c1cn(CC(C)C)c(=O)c2c1c1ccccc1n2C	-21%	-18%
CCc1nc2c(OCC3CCCCC3)cccn2c1N(C)C(=O)c1ccc(OC)cc1	-6%	-12%
CCOC(=O)C1(CC2CCCCO2)CCN(C(=O)Nc2ccccc2)CC1 (stereo unspecified)	i	-14%
COc1cc(/C=N/NS(=O)(=O)c2ccc(C)cc2)ccc1OCc1ccc(C(=O)O)cc1	i	-15%
Cc1ccc(O)c(-c2cc(C(=O)Nc3ccc(S(=O)(=O)Nc4nc(C)cc(C)n4)cc3)[nH]n2)c1	-21%	-9%
O=C(COC(=O)Cc1ccc(Br)cc1)NCc1ccc2c(c1)OCO2	-7%	7%
COCCN(C(=S)Nc1ccccc1OC)C(C)c1cccs1 (stereo unspecified)	i	-1%
COc1ccc2nc(NC(=O)c3ccc(F)cc3)sc2c1	i	-8%
C(=N/Nc1cc(N2CCOCC2)nc(N2CCOCC2)n1)/c1ccccc1	-30%	-25%
CCOc1ccc(OCCSc2nnnn2C2CCCCC2)cc1	.	-37%
COc1cccc(C(=O)Nc2nnc(SCC(=O)NC3CCCC3)s2)c1	-6%	0%
COc1ccc(-n2c(SCC(=O)NCc3cccs3)nc3[nH]ncc3c2=O)cc1	i	-12%
CC(=O)Nc1ccc2cnn(C(C)=O)c2c1	i	-3%
COC(=O)c1ccccc1NC(=S)N(Cc1ccc2c(c1)OCO2)Cc1cc2cccc(C)c2[nH]c1=O	-12%	2%
CCN(CC)CCCNC(=O)c1cc2c(-c3ccc(Cl)cc3)nn(C)c2s1	-14%	?
OC(COc1ccc(OCc2ccccc2)cc1)CN1CCCCC1 (stereo unspecified)	-14%	-6%
CCOC(=O)c1c(C)[nH]c(C(=O)CN2C(=O)NC(C)(CC(C)C)C2=O)c1C (stereo unspecified)	-14%	-24%
COc1ccc(CCNc2ccc(C(CC(N)=O)NC(=O)c3ccccc3)cc2[N+](=O)[O-])cc1 (stereo unspecified)	i	-21%
COc1ccc(C(=O)NCc2ccc(N3CCN(C(=O)OC(C)(C)C)CC3)cc2)cc1	?	?
CCc1ccc(-n2nc(C)c3c(C(=O)Nc4ccc(Cl)cc4)cc(C)nc32)cc1	9%	11%
Cc1ccc(S(=O)(=O)N2CCCCC2)cc1NC(=O)COC(=O)c1cc[n+]([O-])cc1	-13%	-8%
O=C(NNC(=O)c1ccccc1-n1cccc1)c1ccc(F)cc1	i	5%
FC(F)(F)c1cc(-c2ccccc2)nc2ncnn12	-4%	-20%
COC(=O)c1c(C(=O)OC)c(-c2cccc(F)c2)n2c1CS(=O)C2 (stereo unspecified)	-5%	-4%
COc1ccc(S(=O)(=O)N(C)C[C@H]2Oc3ccc(NC(=O)Cc4ccccc4)cc3C(=O)N([C@H](C)CO)C[C@@H]2C)cc1	i	-20%
O=C(COC(=O)[C@@H]1CCCN1S(=O)(=O)c1ccc(Cl)cc1)NC1CCS(=O)(=O)C1 (stereo partly specified)	i	-16%
O=C(NCc1ccncc1)[C@@H]1CCCN1C(=O)[C@H]1CCCN1C(=O)c1cccc(Cl)c1	42%[activator]	0%
Cc1ccc(Cn2c(=O)n(Cc3ccco3)c(=O)c3oc4ccccc4c32)cc1	i	-7%
CCn1c(SCC(=O)O)nnc1-c1ccc(S(=O)(=O)N2CCCC2)cc1	i	0%
CCc1ccc(-n2nc(C)c3c(C)cc(=O)n(CC(=O)N4CCCc5ccccc54)c32)cc1	-14%	-7%
CCCc1cc2c(cc1NC(=O)c1ccccc1F)OCO2	-22%	-9%
CCCn1c(N)c(C(=O)CSc2n[nH]c(-c3ccc(C)cc3)n2)c(=O)[nH]c1=O	-30%	-17%
CCN(Cc1cn2cccnc2n1)C1CCCCC1	-3%	-10%
CCOC(=O)CC1COCCN1C(=O)CCc1nnc(-c2ccsc2)o1 (stereo unspecified)	i	-10%
Cc1ccc(S(=O)(=O)c2nc(S(=O)(=O)c3ccccc3)sc2NCCCOC(C)C)cc1	1%	-8%
CN(CP(=O)(O)CN(C)S(C)(=O)=O)S(C)(=O)=O	.	-6%
ClCc1cc2ccccc2nc1Cl	-14%	-1%
C[C@@H](NC(=O)c1nc[nH]c1C(=O)N[C@@H](CCCCNC(=O)OC(C)(C)C)C(=O)OC(C)(C)C)c1ccccc1	-33%	?
CC1(c2ccc(F)cc2)OC(=O)c2c1ccc1ccccc21 (stereo unspecified)	i	-13%
CCCCn1c(CNC(=O)c2ccc(OC)cc2)nnc1SCC(=O)Nc1ccc(OC)cc1	0%	-6%
N#CCC(=O)Nc1ccc(C(=O)OCC(=O)Nc2cccc3ccccc23)cc1	-30%	-15%

Of the compounds above, eight have an aryl thioether with sulfur outside any ring:
Compound	Vaccinia mCherry	Vaccinia Venus
Nn1c(SCC(=O)Nc2ccccc2Br)nnc1-c1ccco1	i	-7%
CCCn1cc(SCC(N)=O)c2ccccc21	i	0%
CCOc1ccc(OCCSc2nnnn2C2CCCCC2)cc1	.	-37%
COc1cccc(C(=O)Nc2nnc(SCC(=O)NC3CCCC3)s2)c1	-6%	0%
COc1ccc(-n2c(SCC(=O)NCc3cccs3)nc3[nH]ncc3c2=O)cc1	i	-12%
CCn1c(SCC(=O)O)nnc1-c1ccc(S(=O)(=O)N2CCCC2)cc1	i	0%
CCCn1c(N)c(C(=O)CSc2n[nH]c(-c3ccc(C)cc3)n2)c(=O)[nH]c1=O	-30%	-17%
CCCCn1c(CNC(=O)c2ccc(OC)cc2)nnc1SCC(=O)Nc1ccc(OC)cc1	0%	-6%

Remaining list, next part.
Compound	Vaccinia mCherry	Vaccinia Venus
CCCCN(CCCNC(=O)c1cc(Nc2ccc(OC)c(OC)c2)nc2ccccc12)Cc1ccccc1	-23%	-9%
CN(C)c1ccc(NC(=O)CN2C(=O)CC(c3ccccc3)=Nc3ccccc32)cc1	i	-11%
CN(CCO)c1cnccn1	i	-6%
CCN1/C(=C/C=C/c2oc3ccc4ccccc4c3[n+]2CC)Oc2ccc3ccccc3c21	51%[activator]	.
CCOC(=O)C(C)/C(C)=N/NC(=O)CCC(=O)Nc1cc(C)ccc1C (stereo unspecified)	-3%	0%
CSc1ncc(C(=O)NCc2ccccc2)c(-c2ccccc2)n1	-13%	-8%
COC(=O)c1nnn(-c2nonc2N)c1CSCCO	.	-5%
CC1(OC(=O)C2CCCC2)C(=O)C=C2C=C3CCCCN3C=C2C1=O (stereo unspecified)	-15%	-21%
CC(C)=CCC/C(C)=C/CNC(=O)C[C@H]1C[C@H](C(=O)N2CCCCC2)[C@@]2(CCc3ccccc3)c3[nH]c4cc(-c5ccco5)ccc4c3CCN2C1=O	?	-6%
CCOC(=O)C1=CNS(=O)(=O)NC1c1ccc(C[C@H](NC(=O)CNC(=O)CCc2ccccc2)C(N)=O)cc1 (stereo partly specified)	i	-9%
O=C(NCCCn1ccnc1)c1cc(-c2cccs2)on1	-23%	-15%
CCN(CC)c1ccc(S(=O)(=O)N2CCOCC2)cc1NC(=O)Nc1ccccc1	?	?
Cc1cccc(C(=O)Oc2ccc(/C=N/NC(=O)c3ccccc3O)cc2)c1	-30%	-9%
COC(=O)CC(c1ccc(OC)c(OC)c1)c1ccc(OC)c(OC)c1	-23%	-14%
c1ccc2c(c1)Cc1cc3ccccc3nc1-2	-17%	4%
CN(C)c1ccc(NC(=O)Cn2nnc3sc4c(c3c2=O)CCC(C(C)(C)C)C4)cc1 (stereo unspecified)	-10%	-6%
CSc1nc2nc(-c3cccc(C(F)(F)F)c3)ccn2n1	-10%	-7%
COc1ccc(NC(=O)c2c(NCc3ccc(C)o3)sc3c2CCC(C)C3)c(OC)c1 (stereo unspecified)	-17%	-9%
Cc1ccc(Cl)c(NC(=O)CCl)c1Cl	?	?
CC(C)CNS(=O)(=O)c1ccc(N2CCCCS2(=O)=O)cc1	-7%	-5%
COC(=O)Cc1ccc(OCC(=O)Nc2ccc(OC(F)(F)F)cc2)cc1	-8%	-11%
Cc1cc2ccccc2n2c(SCC(=O)Nc3ccc(S(=O)(=O)N4CCCCC4)cc3)nnc12	-12%	?
Cc1cccnc1-c1cccc2c1OC(CNC(=O)/C=C/c1cccs1)C2 (stereo unspecified)	-6%	4%
CCOC(=O)c1cc(C)[nH]c(=S)c1C#N	.	2%
COc1cc(C(=O)Nc2ccc3c(c2)C(=O)c2ccccc2C3=O)cc(OC)c1OC	-12%	-11%
CC(C)CN(C(=O)COC(=O)CCC(=O)c1ccc(F)cc1)c1c(N)n(Cc2ccccc2)c(=O)[nH]c1=O	i	-7%
CCOc1ccc(NC(=O)CN(C)C(=O)c2cc([N+](=O)[O-])ccc2Sc2ccccc2)cc1OCC	-20%	?
Brc1ccc(C2=CC(c3ccco3)n3nnnc3N2)cc1 (stereo unspecified)	-2%	-13%
CCCCCCCCCCCCCCCC(=O)NCCO	-1%[3.33 µM]	-10%
Cc1cc(/C=N/NC(N)=S)c(C)n1-c1ccc(Br)cc1	-7%	-7%

(next part)
structure,Vaccinia mCherry,Vaccinia Venus
COc1ccc(NC(=O)NCCCN2CCN(c3ccccc3F)CC2)cc1,-25%,-3%
CC(=O)Oc1ccc(C(=O)O)cc1OC(C)=O,i,-13%
CCOc1ccc(C(=O)OCC(=O)NC(C)C)cc1,-7%,5%
Clc1ccc(C2CC(c3ccccc3)Nc3ncnn32)cc1 (stereo unspecified),-12%,-10%
O=c1[nH]c(=O)c2cc3ccccc3nc2[nH]1,i,-5%
O=[N+]([O-])c1cccc(-c2n[nH]c(=S)n2Cc2ccccc2)c1,i,-14%
COCCN(C(=O)COC(=O)Cc1cccc(OC)c1)c1c(N)n(Cc2ccccc2)c(=O)[nH]c1=O,-6%,-3%
Cc1ccc(/C=C/c2onc(C)c2S(=O)(=O)N2CCC(C(=O)Nc3ccccc3C(F)(F)F)CC2)cc1,-20%,-22%
Cc1ccc(C2=C/C(=C/c3cccs3)C(=O)O2)cc1,i,-2%
Cn1cnnc1SCC(=O)Nc1cc(S(=O)(=O)N2CCCCCC2)ccc1Cl,-12%,-9%
COc1ccccc1C(=O)Nc1ccnn1C1CCN(Cc2cnn(C)c2C)CC1,i,-19%
Cc1noc(C)c1C(=O)OCC(=O)N(C)C1CCS(=O)(=O)C1 (stereo unspecified),-7%,-4%
NCCc1c(-c2ccccc2)n(-c2ccccc2)c2ccccc12,?,?
CCCC(=O)OCC[N+](C)(C)C,-11%&-22%,-9%&-16%
CN(CC(=O)NCc1ccccn1)S(=O)(=O)c1ccc2ccccc2c1,i,-8%
CCCCOc1ccc(C2=NC(c3ccccc3)=Nc3ccc(OC)cc3N2)cc1,-7%,-1%
CC(C)Nc1cc(C(C)(C)C)nc2c(-c3ccccc3)cnn12,-18%,-17%
COc1cc(CNCc2ccccc2)cc(Cl)c1OC,?,-8%
O=C(c1ccc(COc2ccc3c(c2)CCC3)o1)N1CCN(c2ccccc2)CC1,-9%,-7%
CCCCn1c(N)c(N(CC(C)C)C(=O)c2cccc(S(=O)(=O)N(CC)c3ccccc3)c2)c(=O)[nH]c1=O,-15%,-9%

Assay outcomes (PubChem BioAssay)
